# Compound activity as filed in PubChem BioAssay.
# Mtb growth – Confirmatory growth inhibition assay against Mycobacterium tuberculosis H37Rv, potency (AID 1949). most inactive calls were filed without a number and no value below 0 was filed. inhibition, % at 10 µg/mL, or IC50 in µg/mL where a hit was titrated. actives 1.6% (n = 100,000);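 active = confirmed in a dose series; inconclusive = about 50% or more but not retested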;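 also: bacteria grown 7 days with compound before Alamar blue readout; 0% = untreated bacteria and 100% = reference antibiotic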
# Starred values were filed as active, the others as inactive; i = inactive; ? = inconclusive. Some of the compounds tested, so the mix of outcomes need not match the whole.
SMILES,Mtb growth
CCc1c(C)nc(N2CCN(Cc3ccccc3)CC2)[nH]c1=O,i
Cc1ccc(N(C(C)C(=O)NC(C)c2ccccc2)S(C)(=O)=O)cc1C (stereo not given),i
COc1ccc(N2C(=O)CC(NCCc3ccccc3F)C2=O)cc1 (stereo not given),i
Cc1cccc(C)c1NS(=O)(=O)c1ccc(NC(=O)CCc2ccccc2)cc1,i
COc1ccccc1C(O)c1nc2ccccc2n1Cc1ccccc1 (stereo not given),2.3%
CCN1CCN(CCCOc2ccccc2F)CC1,i
COc1ccc(OC)c(N2C(=S)N(c3ccc(C)cc3)C3CS(=O)(=O)CC32)c1 (stereo not given),i
CCn1c(COc2ccccc2Cl)nnc1SCC(=O)Nc1sc2c(c1C#N)CCCC2,i
CCSc1ccc(NC(=O)Cc2ccccc2)cc1,i
Cc1cc(C)nc(Nc2n[nH]c(-c3ccccc3C)n2)n1,i
CCN(CC)C(=O)c1ccc(C)c(Cl)c1,i
N#Cc1c(N)c(C(=O)c2ccccc2)n2c1CCCC2,i
O=C1CCCC2=C1C(c1ccco1)c1c([nH]n(-c3ccccc3)c1=O)N2 (stereo not given),i
O=C(Nc1ccc2oc(-c3cccnc3)nc2c1)c1ccc(-c2ccc(Cl)cc2)o1,i
O=C(Nc1cccc(-c2cnc3ccccc3n2)c1)c1cnccn1,i
Cc1ccc(CC(=O)N2CC(C)OC(C)C2)cc1 (stereo not given),i
COC(=O)c1ccccc1NC(=S)NC(=O)c1ccccc1OC,i
CCOC(=O)c1c(NC(=S)NC(=O)c2ccc(Br)o2)sc2c1CCCC2,i
CCN1C(=O)/C(=C2/C=Cc3ccccc3N2C)OC1=S,i
COc1ccc(C)cc1N(CC(=O)Nc1ccccc1Br)S(C)(=O)=O,i
COc1cc(NC(=O)C2CCCCC2)c(C(=O)O)cc1OC,i
Cc1ccc(NC(=O)Nc2nc3ccccc3s2)cc1,9.5%
O=C1c2cccc3c([N+](=O)[O-])ccc(c23)C(=O)N1c1cccc(Cl)c1,i
CCC(Oc1ccccc1)C(=O)N1CCN(Cc2ccccc2)CC1 (stereo not given),i
Cn1c(SCC(=O)Nc2ccc(N3CCOCC3)cc2)nnc1-c1ccccc1,i
# Carrying on:
SMILES,Mtb growth
Cc1ccc(NC(=O)C(Cc2ccccc2)NC(=O)c2ccccc2)cc1 (stereo not given),2.2%
Cc1ccc(C(=O)Nc2ccc(C#N)cc2)c(C)c1,0.3%
O=C(Nc1ccccc1C(=O)Nc1ccc2c(c1)OCO2)c1ccco1,8.6%
O=C(NCc1cccs1)c1c(F)c(F)c(F)c(F)c1F,i
CCN(CC)S(=O)(=O)c1cccc(C(=O)Nc2nncs2)c1,i
O=C(CSc1nnc(Cc2ccccc2)o1)Nc1nc(-c2ccccc2)cs1,i
N#Cc1ccccc1OCCCCSc1ncccn1,i
CCOc1cc(CNCc2ccc(F)cc2)ccc1OCC(=O)NC(C)(C)C,4.3%
Cc1cc(C)nc(SCCS(=O)(=O)Cc2ccccc2)n1,i
CCN(CC)c1ccc(C(=O)NNC(=S)NCc2ccc(Cl)cc2)cc1,0.1%
COc1ccc(COC(=O)C2=C(C)NC3=C(C(=O)CCC3)C2c2cccc(Cl)c2)cc1 (stereo not given),5.7%
CCCc1ccc(OCC(=O)Nc2ccc(Cl)cc2Cl)cc1,2.86µg/mL*
CCC(C)NCCOCCOc1ccc(Br)cc1 (stereo not given),i
c1ccc2c(c1)oc1c(N3CCCCCC3)ncnc12,i
COc1ccc(S(=O)(=O)N(CCc2ccccc2)CC(=O)N2CCN(C)CC2)cc1Cl,i
OCCNCCCOc1ccc(I)cc1,i
CCOc1ccc(C(=O)Nc2ccc3oc(-c4cccc(F)c4)nc3c2)cc1,3.3%
O=C(COc1ccc2ccccc2c1Br)Nc1cccc(Cl)c1,0.4%
Cc1ccccc1OC(C)C(=O)NC1CC(C)(C)NC(C)(C)C1 (stereo not given),i
COc1ccc(-c2cc(C(=O)NCc3cn(C)nc3C)c3ccccc3n2)cc1OC,i
Cc1cccc(-c2nnc(SCC(=O)N3CCN(c4ccccc4)CC3)n2-c2ccccc2)c1,2.4%
CCC(Cc1ccccc1)NC(=O)c1ccccc1OC (stereo not given),5.3%
CCOC(=O)c1ccc(N2C(=O)CC(N3CC=C(c4ccc(F)cc4)CC3)C2=O)cc1 (stereo not given),i
OC1CN(C(c2ccccc2)c2ccccc2)C1,0.9%
CCOc1ccc2nc(Nc3nc(C)c(Cc4ccc(C)cc4)c(=O)[nH]3)nc(C)c2c1,i
# Next part:
SMILES,Mtb growth
Cc1ccc(S(=O)(=O)N(CC(=O)NC2CCCC2)c2cccc(C)c2C)cc1,i
O=C(O)CSc1cc(NS(=O)(=O)c2ccc3ccccc3c2)c2ccccc2c1O,2.2%
Cc1ccc(COc2ccccc2C=O)cc1,1.0%
Nc1ncnc(Oc2ccccc2)c1[N+](=O)[O-],0.8%
Cc1nc2ccccc2n1CC(=O)NCc1ccccc1,i
O=S(=O)(Cc1ccccc1)N1CCCCCC1,i
CCc1cccc(NC(=O)NC2CCCCC2)c1,12.1%
CCOC(=O)NC(=O)CSc1nc(-c2ccc(OC)cc2OC)cc(C(F)(F)F)c1C#N,2.9%
Cc1ccc(OCCCN2CCCC2)c(Br)c1,i
Cc1cc(OCCCNC(C)C)cc(C(C)C)c1,i
O=C(Cc1ccc2c(c1)CCCC2)Nc1nccs1,i
COc1ccccc1C(=O)N1CCC(N2CCCCCC2)CC1,3.1%
CCc1ccc(OCC(=O)NC(=S)Nc2cccc(Cl)c2)c(Br)c1,i
CCN(CC)C(=O)C1=C(C)NC(=S)NC1c1cc(Br)cc(OC)c1OC (stereo not given),i
COC(=O)c1cc(NC(=O)c2cc(OC)cc(OC)c2)ccc1Cl,0.5%
O=c1c(F)cn(C2CCCO2)c(=O)n1Cc1ccccc1F (stereo not given),i
CC(C)(C)c1ccc(OCc2ccc(C(=O)NC3CCCCC3)o2)cc1,i
COC(=O)c1sccc1NC(=S)Nc1ccc(F)cc1F,i
Cc1nccn1Cc1cccc2ccccc12,i
N/C(=N\OC(=O)c1ccc2c(c1)OCO2)c1ccc(Cl)cc1,?
CCOC(=O)c1sc(NS(C)(=O)=O)nc1C,i
COc1ccc(OC)c(N(CC(=O)Nc2c(C)cc(C)cc2C)S(=O)(=O)c2ccccc2)c1,0.9%
Cc1cc2sc(NC(=O)Cc3ccccc3)nc2cc1Cl,i
O=C(Nc1ccc(CN2CCOCC2)cc1)c1ccc(Cl)c(Cl)c1,i
CSc1nc2ccccc2n1C(=O)CCCN1C(=O)c2cccc3cccc(c23)C1=O,i
# Other entries
SMILES,Mtb growth
CCC(=O)c1ccc(OCC(O)CN2CCN(c3ccc(C)c(Cl)c3)CC2)cc1 (stereo not given),39.2%
O=C(Nc1ccc(C2CCCCC2)cc1)C1=C(O)CCn2c1nc1ccccc12,6.0%
Fc1ccccc1OCc1cnn(-c2ccccc2)c1,12.1%
COc1cc(NC(=O)CSc2nnc(-c3ccc(Cl)cc3)n2-c2ccc(C)cc2)cc(OC)c1,1.2%
CCCc1nc2ccccc2n2c(-c3ccccc3)c3c(=O)n(C)c(=O)n(C)c3c12,20.4%
COc1ccc(C2CC(=O)C3=C(C2)Nc2ccccc2NC3c2cccc(C(F)(F)F)c2)cc1OC (stereo not given),12.8%
COc1ccc(-n2c(SCC(=O)c3ccccc3)nnc2-c2cccs2)cc1,i
COC(=O)c1cc(OC)c(OC)cc1NC(=O)c1c(-c2ccccc2)noc1C,i
CCn1c(/C=C/c2c(C)n(C)c3ccc(OC)cc23)nc2ccccc2c1=O,i
O=C(NC1CCCCCCC1)c1cc(Cl)ccc1Cl,6.2%
O=C(Nc1cccc(C(F)(F)F)c1)N1c2ccccc2Sc2ccccc21,i
COc1ccc(CN=C2NC(=O)CC(C(=O)Nc3ccccc3C)S2)cc1 (stereo not given),i
COc1cc(/C=C/c2ccc3cccc(OC)c3n2)ccc1OC(C)=O,i
CCN(CC)C(=O)c1sc(NC(=S)Nc2ccsc2C(=O)OC)c(C(=O)OC)c1C,i
Cc1cc(NC(=O)Nc2cccc(C(F)(F)F)c2)no1,4.2%
O=C(O)c1ccc(NS(=O)(=O)c2cccc(C(=O)O)c2)cc1,i
CCOC(=O)c1c(C)nc(-c2ccccc2)nc1NC(=O)c1ccccc1,10.1%
O=C(N/N=C/c1ccccn1)/C(=C\c1cccs1)NC(=O)c1ccccc1,i
CCCCOc1ccc(C2C(C(=O)Nc3ccccc3)=C(C)Nc3ncnn32)cc1 (stereo not given),i
COC(=O)C1=CN(C(C)C)C=C(C(=O)OC)C1c1ccc(Br)cc1,1.3%
COc1cc(OC)c(NC(=O)CSc2nnc(C)s2)cc1Cl,i
C/C=C/c1ccc(OCCCn2cncn2)c(OC)c1,i
O=C(CC1NCCNC1=O)Nc1ccccc1[N+](=O)[O-] (stereo not given),i
CCOc1cc(C(=O)Oc2ccc(C(=O)Nc3ccc(C)cc3)cc2)cc(OCC)c1OCC,i
Cc1ccc(NC(=O)c2ccc(NCCN3C(=O)C4C5C=CC(C5)C4C3=O)c([N+](=O)[O-])c2)cc1Cl (stereo not given),i
# Later entries.
SMILES,Mtb growth
CCOC(=O)c1c(NC(=O)COc2c(C)cc(C)cc2Cl)sc(C(=O)OC)c1C,i
COc1ccc(C(=O)CSc2cc(C)c3ccccc3n2)cc1OC,i
O=C1CCCC2=C1C(c1cccc(O)c1)Nc1ccc(C(=O)c3ccccc3)cc1N2 (stereo not given),i
O=C(Nc1cccc2cccnc12)c1cccc2ccccc12,0.4%
COc1ccc(OCCCC(=O)Oc2ccc(OC)cc2)cc1,i
CCn1c(-c2ccc(C)cc2)n[nH]c1=S,i
Cc1ccc2nc(/C(C#N)=C\c3cc4c(cc3Cl)OCO4)[nH]c2c1,i
CCCCC(=O)Nc1ccc(C#N)cc1,2.1%
O=S(=O)(Nc1cccc(C(F)(F)F)c1)c1ccccc1,i
CCSc1ccccc1C(=O)Nc1ccc(-c2nc3ccc(C)cc3s2)cc1,i
Cc1ccc(-c2nc3ccc(Br)cc3c(=O)o2)cc1C,i
Cc1cc(C)cc(NS(=O)(=O)Cc2ccc(Cl)cc2)c1,i
Cc1ccc(-c2[nH]c(-c3ccc(C#N)cc3)nc2-c2ccccc2)cc1,6.3%
Cc1nnc(SCC(=O)NC2CC2)n1-c1ccccc1,i
COc1cccc(N(CC(=O)Nc2ccc(C(F)(F)F)cc2)S(C)(=O)=O)c1,i
O=C(NC1CC1)c1sc2ccccc2c1Cl,5.2%
Nc1c(-c2nc3ccccc3[nH]2)sc2nc3c(cc12)CCC3,11.0%
CCOC(=O)c1c(-c2ccc(OC)c(OC)c2)csc1NC(=O)COc1ccc(C)cc1,4.5%
Cc1cc(Cl)ccc1NC(=S)Nc1ccccc1F,i
COc1cc(/C=N/N2C(=O)C3C4C=CC(C4)C3C2=O)cc(I)c1OC (stereo not given),0.9%
COc1ccc(S(=O)(=O)NC(C)C(=O)O)cc1Cl (stereo not given),i
COc1ccc(N(CC(=O)Nc2cccc(SC)c2)S(C)(=O)=O)cc1,i
Cc1ccc(C(=O)Nc2ccc(CC(=O)O)cc2)o1,i
O=C(O)Cc1ccc(NC(=O)c2cnccn2)cc1,1.2%
CCCOc1ccc(C(=O)Nc2cc(-c3nn4c(CC)nnc4s3)ccc2C)cc1,0.5%
# Additional structures follow.
SMILES,Mtb growth
O=C(CSc1ccccn1)Nc1c(Cl)cccc1Cl,0.1%
CC(=O)c1cccc(NS(=O)(=O)c2cccc(C(=O)O)c2)c1,i
CCC(=O)Nc1ccc(S(=O)(=O)N2CCc3ccccc3C2)cc1,4.2%
Cc1[nH]c2ccccc2c1C(=O)CSc1nnc(Cc2cccs2)n1C,i
O=C(COc1ccc(Cl)cc1Cl)Nc1ccc(S(=O)(=O)N2CCCC2)cc1,i
CCN(CC)c1ccc(NC(=S)Nc2cc(OC)ccc2OC)cc1,i
Cc1cc(C)cc(NC(=S)NCCC(c2ccccc2)c2ccccc2)c1,i
O=C(NC(=S)Nc1ccc2oc(-c3ccncc3)nc2c1)c1cc(Br)ccc1Cl,22.9%
CCCCCNC(=O)CSCc1ccc([N+](=O)[O-])cc1,i
O=C(Nc1nnc(-c2cccnc2)s1)c1cc(-c2ccccc2)nc2ccccc12,i
CN(CC(=O)NNC(=O)c1cccs1)S(=O)(=O)c1ccc2ccccc2c1,i
COc1cc(OC)c(/C=C(/C#N)c2ccccc2F)cc1Br,i
O=C(O)COc1ccc2occ(C(=O)c3ccccc3)c2c1,i
CCCCC(=O)Nc1ccc(C(=O)Nc2cccnc2)cc1,8.2%
CC(C)c1cc(I)ccc1NC(=O)CSc1nnc(CNC(=O)c2ccccc2F)n1C,i
CCn1c(SCC(=O)Nc2ccccc2C(F)(F)F)nnc1-c1ccc(N)cc1,i
Cc1ccc(OCCN2CCC(C)CC2)c([N+](=O)[O-])c1,i
Cc1cc(Cl)ccc1NC(=O)COc1ccc(Br)cc1C,i
